TRPML1 agonist: agonists of human TRPML1 channel; Q9GZU1; activation, % (test concentration not listed); TRPML1-expressing cells, Ca2+ dye fluorescence, FDSS; host cell line not named in the record; reference of the full effect not given here; actives 0.12% (n = 410,000); in the data active = activation above about 50%; inconclusive = about 30% to 50%; inactive = below about 30%; note: 0% is about no effect; the text of the record puts the active cut at 80%
Target sequence (Q9GZU1 whole entry, looked up): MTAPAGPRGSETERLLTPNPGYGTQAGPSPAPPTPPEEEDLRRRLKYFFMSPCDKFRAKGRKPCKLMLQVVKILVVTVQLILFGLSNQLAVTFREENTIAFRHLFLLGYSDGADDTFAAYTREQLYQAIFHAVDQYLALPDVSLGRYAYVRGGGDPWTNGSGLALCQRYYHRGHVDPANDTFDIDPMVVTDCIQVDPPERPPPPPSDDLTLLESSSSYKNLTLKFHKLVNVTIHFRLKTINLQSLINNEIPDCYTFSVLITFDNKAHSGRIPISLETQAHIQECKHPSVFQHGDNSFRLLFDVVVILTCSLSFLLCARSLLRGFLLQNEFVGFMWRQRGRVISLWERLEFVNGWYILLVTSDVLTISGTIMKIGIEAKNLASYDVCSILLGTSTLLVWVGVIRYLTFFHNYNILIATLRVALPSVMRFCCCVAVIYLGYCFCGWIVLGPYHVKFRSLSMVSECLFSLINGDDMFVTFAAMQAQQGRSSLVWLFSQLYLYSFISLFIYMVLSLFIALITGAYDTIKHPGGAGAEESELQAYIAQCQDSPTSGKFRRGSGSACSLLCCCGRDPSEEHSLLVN
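Tetracycline-induced TRPML1-DL cells are seeded and incubated overnight before loading with a no-wash Ca2+ dye and quencher. Agonist activity is taken from the 110 s fluorescence read following compound pin-transfer on an FDSS, before EC80 54-4 challenge.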
PINK1 modulator: changes PINK1 expression. PINK1 immunofluorescence, high-content cytometry, 24 h. Potency, µM (top dose mostly 76.6 µM), without a hit: at the highest dose activation (PINK1 increase), usual class: activators. actives 0.2% (n = 410,000); active = well fitted activation curve with a large enough effect; inconclusive = small, poorly fitted or top-dose-only effect; inactive = flat fitted curve, though single readings scatter; cell line not stated here;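 note: potency is the fitted concentration of half-maximal effect; % of control where 0% means no effect; nearly all actives have a fitted effect of over 65% in size; a mitochondrial uncoupler was the plate control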
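Fluorescence from anti-PINK1 antibody, together with nuclear and cell stains, was scanned on a laser-scanning cytometer. Before staining, stable-line cells were incubated 24 hours with compounds at 5 concentrations; primary antibody 12 h at 10 degrees C.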
D2 agonist: agonists of human D2 dopamine receptor (beta-arrestin); DiscoveRx PathHunter D2 beta-arrestin, luminescence, 90 min; 100% = 57 uM dopamine signal; AID 624465; activation, % (no concentration beside the values); P14416; actives 0.084% (n = 360,000); in the data active = activation above about 40%; inconclusive = about 15% to 40%; inactive = below about 15%; note: compound concentration not given in the record; the text of the record calls up to 30% inactive
Target sequence (P14416 whole entry, looked up): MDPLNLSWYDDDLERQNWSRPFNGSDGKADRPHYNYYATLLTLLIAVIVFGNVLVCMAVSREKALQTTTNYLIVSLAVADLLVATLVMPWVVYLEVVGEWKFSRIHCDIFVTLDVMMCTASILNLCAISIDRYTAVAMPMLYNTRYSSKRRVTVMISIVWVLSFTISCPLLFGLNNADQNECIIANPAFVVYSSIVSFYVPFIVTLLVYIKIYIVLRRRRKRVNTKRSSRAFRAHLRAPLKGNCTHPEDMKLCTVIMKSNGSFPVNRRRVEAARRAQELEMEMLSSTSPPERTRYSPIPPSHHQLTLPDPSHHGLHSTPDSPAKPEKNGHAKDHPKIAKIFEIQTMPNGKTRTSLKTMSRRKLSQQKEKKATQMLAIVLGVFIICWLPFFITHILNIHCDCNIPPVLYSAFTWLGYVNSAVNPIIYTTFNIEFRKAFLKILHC
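DiscoveRx PathHunter D2 beta-arrestin cells (2,100/well) attached overnight, then compound-stimulated 90 min at 37 C in HBSS/10 mM HEPES/0.1% Tween-20 buffer; beta-galactosidase complementation read by luminescence after 1 h at ambient temperature. Dopamine 57 uM final (EC100) as control.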
TRPML1 inh: human mucolipin-1 channel inhibition. Q9GZU1. TRPML1-inducible cells, Ca2+ dye fluorescence, FDSS; stronger effect = lower value; inhibition of EC80 agonist-evoked calcium signal. activity change, negative = inhibition, % (no concentration beside the values). actives 0.02% (n = 390,000). AID 624415; in the data active means activity change below about -50%; inconclusive means about -30% to -50%; inactive means above about -30%;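 note: stimulus is agonist 54-4 at its EC80 concentration; % is set by controls: 0 for no effect and ±100 for the full control effect; compound concentration not given in the record; the text of the record puts the active cut at -80%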
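Calcium fluorescence in TRPML1-DL cells induced overnight with Tet: a 110 s read after compound pin addition, then a 110 s antagonist read after challenge with 54-4 at 4 uM final (EC80).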
CtBP-E1A blk: CtBP/E1A binding inhibition | actives 0.49% (n = 340,000) | activity change, % (concentration not given with the values) | AlphaScreen GST-E1A/His-CtBP binding, 1536-well; stronger effect = lower value; control for the full effect not named in the record; in the data active means activity change below about -65%; inconclusive means about -30% to -65%; inactive means above about -30%; note: % is set by controls: 0 for no effect and ±100 for the full control effect
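GST-E1A and His-tagged CtBP (125 nM each as 5X stock) were preincubated with pin-transferred compound for 2 h at 37 °C in the dark, then glutathione donor and nickel acceptor beads were added for 1 h before AlphaScreen reading.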
Six1-Eya2 inh: Six1/Eya2 interaction inhibition | AlphaScreen GST-Six1/His-Eya2 binding, biochemical; stronger effect = lower value; control for the full effect not named in the record | activity change, % (concentration not given with the values) | actives 0.56% (n = 360,000) | AID 651725; in the data active = activity change below about -65%; inconclusive = about -30% to -65%; inactive = above about -30%; note: % is set by controls: 0 for no effect and ±100 for the full control effect
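Six1/Eya2 binding was read as AlphaScreen signal after compounds were pinned into GST-Six1 plus His-tagged Eya2 (5X stock 250/500 nM) in pH 8.0 Tris/NaCl/TCEP buffer, beads added, then incubated 1 h, 37 C, dark.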
* hit, by the source's call; ? = inconclusive; nt = no result given; & = joins results of further samples; [ ] = dose if it differs, or a comment.

Start of the data: the first three records, to show the layout:
Values run as follows: TRPML1 agonist | PINK1 modulator | D2 agonist | TRPML1 inh | CtBP-E1A blk | Six1-Eya2 inh
(1) CCOC(=O)N1CCN(C2CCCN(C(=O)c3ccccc3SC)C2)CC1 (stereo unspecified)
    0.6 | 0.0% | -1.9 | 3 | 3 | 2
(2) O=C(CSc1nnc(-c2cccs2)n1Cc1ccco1)c1ccc2c(c1)OCO2
    0.5 | -0.8% | 3.2 | 9 | -10 | -9
(3) O=C(O)C1Nc2c(O)cccc2C2C=CCC12 (stereo unspecified)
    -0.7 | ? | -7.0 | -15 | -82* | 0

The whole of this part, from the start:
Values run as follows: TRPML1 agonist | PINK1 modulator | D2 agonist | TRPML1 inh | CtBP-E1A blk | Six1-Eya2 inh
(1) CCOC(=O)N1CCN(C2CCCN(C(=O)c3ccccc3SC)C2)CC1 (stereo unspecified)
    0.6 | 0.0% | -1.9 | 3 | 3 | 2
(2) O=C(CSc1nnc(-c2cccs2)n1Cc1ccco1)c1ccc2c(c1)OCO2
    0.5 | -0.8% | 3.2 | 9 | -10 | -9
(3) O=C(O)C1Nc2c(O)cccc2C2C=CCC12 (stereo unspecified)
    -0.7 | ? | -7.0 | -15 | -82* | 0
(4) COC(=O)c1sccc1S(=O)(=O)N(CC(=O)Nc1cc(F)ccc1F)c1ccc(C)c(C)c1
    6.1 | 2.3% | nt | 7 | nt | nt
(5) Cc1cccc(C)c1NC(=S)N(Cc1ccco1)C1CCN(C(C)C)CC1
    0.8 | 0.3% | 0.8 | 1 | 2 | 0
(6) COC(=O)c1ccc2c(C)c(C3(O)CCCCC3)[nH]c2c1
    -0.6 | 9.4% | 3.5 | 21 | 2 | -5
(7) CCCCC(=O)Nc1ccc2nc(SCC(=O)N3CCCC3)sc2c1
    1.9 | -0.3% | nt | 19 | nt | nt
(8) N#Cc1c(NC(=O)CCn2cnc3ccccc3c2=O)oc(-c2ccccc2)c1-c1ccccc1
    0.7 | -0.2% | 12 | 10 | -2 | -13
(9) O=C(NNS(=O)(=O)c1ccccc1)c1cccnc1
    nt | -0.2% | -4.3 | nt | 9 | 0
(10) Cc1ccc(NCC(O)C(O)C(O)CO)cc1C (stereo unspecified)
    -0.8 | -1.6% | -3.2 | -13 | 0 | -2
(11) CC(=O)OCCCCON1C(=O)c2ccccc2C1=O
    0.0 | 0.4% | -2.4 | 15 | 2 | 1
(12) C=CC(=O)Nc1ccc(Nc2nc(NC3CCC(N(C)C)CC3)nc3c2ncn3C(C)C)cc1 (stereo unspecified)
    -0.6 | -1.0% | 1.1 | 32 | 1 | 3
(13) Cc1ccc(C)c(S(=O)(=O)N2CCN(C(=O)c3ccc(-n4cncn4)c([N+](=O)[O-])c3)CC2)c1
    -0.5 | ? | 1.9 | -9 | -3 | -1
(14) O=C(CSc1ccc([N+](=O)[O-])cn1)Nc1ccc2c(c1)OCO2
    3.0 | 1.7% | ? | 2 | -2 | 2
(15) O=[N+]([O-])c1cccc(CNCc2ccccc2)c1
    -0.1 | 0.2% | -6.0 | -3 | 0 | 13
(16) CC1CCN(S(=O)(=O)c2ccc(Oc3ccc([N+](=O)[O-])cc3)cc2)CC1
    2.1 | 1.2%[38.3 µM] | 2.0 | 7 | -22 | -16
(17) COc1ccccc1C(=O)NNC(=O)c1ccc(NC(=O)C(C)C)cc1
    -0.2 | 1.0% | 4.0 | 10 | -1 | -2
(18) O=C(Nc1ccccc1)Nc1ncc(C(F)(F)F)cc1Cl
    -0.5 | -1.2% | -1.5 | -8 | -21 | -5
(19) C=CCn1c(=O)c2c(nc(-c3ccc(S(=O)(=O)O)cc3)n2C)n(C)c1=O
    -0.2 | 0.7% | 2.2 | 9 | -19 | -25
(20) CN1CCN(C(=O)CN(C2CCCCC2)S(=O)(=O)c2ccccc2)CC1
    1.0 | 2.2% | -2.3 | 9 | 5 | 0
(21) CCOc1ccccc1-c1nc(-c2ccc(NC(=O)Cc3ccc(OC)cc3)cc2)no1
    0.1 | 4.7% | 2.8 | -3 | -2 | 2
(22) CCCC(=O)Nc1cc2c(cc1C(=O)c1ccccc1)OCCO2
    0.3 | -3.4% | -8.2 | 4 | 5 | -12
(23) Cc1ccc(-c2ccc(SCC(=O)N3CCN(c4ccccc4)CC3)nn2)cc1
    -0.3 | ? | -1.5 | -21 | 14 | -7
(24) CCOC(=O)c1ccc(NC(=O)CC2COc3ccccc3O2)cc1 (stereo unspecified)
    2.6 | 5.0% | -4.2 | -16 | 11 | 8
(25) CN(Cc1cnccn1)C(=O)CC1C(=O)NCCN1Cc1cccc(F)c1 (stereo unspecified)
    0.2 | 0.5% | -3.3 | -17 | -2 | 3
(26) C=CCN(C(=O)c1csnn1)C(C(=O)NC1CCCC1)c1cccs1 (stereo unspecified)
    -1.2 | 3.8% | -4.0 | 1 | 7 | 4
(27) Cc1ccc(S(=O)(=O)N(C)c2ccc3ccccc3c2)cc1
    4.6 | 6.8% | -18 | 41 | 10 | 8
(28) Cc1cc(=O)[nH]c(/N=C(\N)Nc2ccc(Oc3ccccc3)cc2)n1
    2.1 | 2.2% | 0.7 | 22 | 1 | 4
(29) CCN(CC(=O)NCc1cccs1)C(=O)c1ccc(Cl)c(Cl)c1
    -0.6 | -1.7% | -3.3 | -26 | 6 | 0
(30) Cc1c(C(=O)N2CCCCC2)c(S(=O)(=O)NCCc2ccc(S(N)(=O)=O)cc2)c(C)n1C
    -0.1 | 0.1% | -2.3 | 9 | 8 | 2
(31) CCOC(=O)c1sc(=NC(=O)c2cc(OC)c(OC)c(OC)c2)n(C)c1C
    0.7 | nt | -2.9 | 4 | 36 | 20
(32) Cc1nc(S(=O)(=O)N2CCOCC2)c(C#N)c(C)c1Cl
    3.3 | -0.8% | -1.7 | -13 | 5 | 2
(33) O=C(Nc1ccccc1C(=O)N/N=C/c1ccc(F)cc1)c1ccccc1Br
    1.7 | -2.9%[38.3 µM] | -2.8 | -11 | -6 | -3
(34) O=C(c1ccc2snnc2c1)N1CCN(c2ccccn2)CC1
    -1.2 | 0.7% | -6.9 | -5 | -6 | 7
(35) CCNc1nc(NCC)n2c(SCC(=O)Nc3ccccc3F)nnc2n1
    0.6 | -1.6% | -0.3 | -3 | -21 | -4
(36) O=C(Nc1ccc(C2CC2(Cl)Cl)cc1)c1ccccc1Br (stereo unspecified)
    -1.0 | ? | -7.2 | 10 | 8 | 4
(37) COc1ccc(NC(=O)CCSc2ccc(C)cc2)cc1S(=O)(=O)Nc1ccccc1Cl
    -0.7 | 1.8% | 2.2 | 30 | -3 | 1
(38) CCn1c2ccccc2c2nnc(N3CCN(c4cccc(C)c4C)CC3)nc21
    -0.6 | 1.4% | nt | 7 | nt | nt
(39) CC(C)(C)c1csc(NC(=O)Cn2c(=O)oc3ccccc32)n1
    0.0 | -0.1% | -0.5 | 5 | -5 | -5
(40) COc1ccccc1C1NC(=O)CCC1[N+](=O)[O-] (stereo unspecified)
    -1.0 | 1.1% | -2.1 | 5 | -2 | 3
(41) O=C(NNC1CC(=O)N(c2ccc(Br)cc2)C1=O)c1cccs1 (stereo unspecified)
    -0.2 | -1.2% | 2.4 | -1 | 0 | -2
(42) O=c1c(Cc2ccccc2)c(O)ccn1CCc1cnc[nH]1
    0.6 | 3.7% | -1.8 | -2 | 0 | 1
(43) O=C(CCC(=O)N1CCN(c2ccc(F)cc2)CC1)N1CCN(c2ccc(F)cc2)CC1
    -0.3 | 3.1% | 1.9 | 0 | 10 | -3
(44) CCOC(=O)c1ccccc1NC(=O)C1CCN(c2ncnc3sc(C)c(C)c23)CC1
    3.9 | -2.5% | 2.0 | 8 | -15 | 3
(45) O=C(CN1CCN(c2ccc([N+](=O)[O-])cc2)CC1)c1ccccc1
    -0.6 | 0.2% | -1.0 | -11 | -8 | -5
(46) O=C1CN(C(=O)CSc2nncn2-c2ccccc2)c2ccccc2N1
    -0.9 | 3.1%[38.3 µM] | -0.1 | -6 | 3 | -1
(47) Cc1ccc(NC(=O)CN(C)C(=O)Cc2ccccc2F)cc1
    0.6 | 1.0% | -4.9 | 1 | -2 | 22
(48) O=C(CCc1ccccc1)NCC(c1ccco1)N1CCc2ccccc21 (stereo unspecified)
    -0.3 | 1.0% | -5.6 | 13 | -8 | -18
(49) COc1ccc(OC)c(NC(=O)c2c(NCc3cccs3)sc3c2CCCCC3)c1
    -0.9 | 0.4% | nt | 2 | nt | nt
(50) O=C1CCN(CCc2ccccc2)CCN1[C@H](CSc1ccccc1)c1ccccc1
    0.1&0.4 | 23% | 0.4 | 11 | -7 | -23
(51) O=c1oc2ccc(Br)cc2cc1S(=O)(=O)c1ccc(F)cc1
    1.3 | 0.8% | -3.3 | 3 | -14 | 0
(52) Cc1cccc(NC(=O)Cn2cc(C(=O)C3CCCCC3)c3ccccc32)c1
    1.8 | 3.2% | nt | -2 | nt | nt
(53) O=C(Nc1c(Cl)cccc1Cl)c1cc(-c2ccc3c(c2)OCO3)on1
    -0.9 | 0.6% | nt | 8 | nt | nt
(54) CCOC(=O)CSc1nc2ccccc2c(=O)n1NC(=O)c1ccccc1
    0.0 | 5.4%[38.3 µM] | -2.3 | -10 | -14 | -9
(55) CC(C)(C)NC(=O)NC(=O)Cn1ccsc1=N
    0.0 | 0.3% | -3.4 | 22 | 4 | 0
(56) CC(NC(=O)Cc1ccccc1)C(=O)O (stereo unspecified)
    -0.3 | -1.3% | -5.8 | -1 | 7 | -2
(57) CCOc1ccc(S(=O)(=O)N2CCN(C(=O)COc3ccc(Br)cc3)CC2)cc1
    2.2 | 0.8% | 2.2 | -1 | nt | 7
(58) CCOc1ccc(-c2cc(C(=O)NCc3ccccc3Cl)c3ccccc3n2)cc1
    -0.2 | 0.4% | nt | -4 | nt | nt
(59) CCc1sc(NC(=O)CCC(=O)O)nc1-c1cc2ccccc2oc1=O
    0.3 | 0.7% | 3.5 | -5 | nt | 3
(60) c1ccc(OCc2noc(CN3CCC(C4CCCCC4)C3)n2)cc1 (stereo unspecified)
    -0.7 | 30% | -5.0 | -2 | nt | -7

Later entries:
Values run as follows: TRPML1 agonist | PINK1 modulator | D2 agonist | TRPML1 inh | CtBP-E1A blk | Six1-Eya2 inh
(61) COc1cccc(C(=O)Nc2ccc(F)cc2F)c1
    0.7 | 0.0% | -3.1 | -6 | 49 | 5
(62) Cc1ccc(C(=O)Nc2nc3ccc(S(C)(=O)=O)cc3s2)o1
    -0.4 | -1.0% | -1.3 | -5 | 4 | -1
(63) Cc1cc(OCc2ccc(C(=O)n3cccn3)o2)ccc1Cl
    4.2 | 0.5% | -1.3 | 35 | 9 | 49
(64) Cc1onc(-c2ccccc2Cl)c1C(=O)NCc1ccc(F)cc1
    -0.7 | 0.3% | 3.5 | 2 | 5 | 1
(65) COc1ccc(C2=NOC(Cn3nc(C(=O)NCc4ccc5c(c4)OCO5)cc3-c3ccccc3)C2)cc1 (stereo unspecified)
    1.4 | 1.1% | 4.6 | 22 | -13 | -10
(66) CC(C)(C)OC(=O)CNC(=O)c1nc[nH]c1C(=O)N1CCN(c2ccccc2)CC1
    0.2 | -0.3% | -2.1 | 8 | 1 | -1

Bioassay records: PubChem BioAssay, National Center for Advancing Translational Sciences (NCATS)
